Screening results as filed in PubChem.
Choline anaer gr – growth inhibitors of anaerobic choline-fed gram-negatives, minimal medium, absorbance. Gram-negative bacterium anaerobic choline minimal medium; hits give low values; many inactives read as strong as hits in the columns shown. calls only. 0.2% of 55,000 active;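 active means growth z-score on choline under -2 at 7 or 20 h with little or no fall on glycerol, limits in tiers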;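 further: stock transfer was 300 nL into about 50 µL; the organism is E. coli; final concentration not given here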
Choline anaer gr early – recorded beside Choline anaer gr, whose call it bears; z-score; measured here: choline growth z-score, timepoint 1;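 score of optical density at 7 h as mean of two plates; lower means less growth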
* = called active by the depositor; & = joins results of further samples. Not all compounds are listed; the hit share may differ from the screen's.

How did Cc1csc(-c2cc(S(=O)(=O)NCCc3ccc(Cl)cc3)c(C)s2)n1 do in these assays?
Choline anaer gr: inactive; Choline anaer gr early: 0.77

Results for CCCN(Cc1cc2ccc(C)cc2[nH]c1=O)C(=O)c1cccc(Cl)c1 ?
Choline anaer gr: inactive; Choline anaer gr early: 0.37

How did Cc1oc(-c2cccc(Br)c2)nc1CSc1nc2c(=O)[nH]cnc2n1C do in these assays?
Choline anaer gr: inactive; Choline anaer gr early: 1.2

What do the screens show for `CCS(=O)(=O)c1nc2ccc(NS(=O)(=O)c3ccc(C(C)C)cc3)cc2s1`?
Choline anaer gr: inactive; Choline anaer gr early: -0.32

Results for Cc1cc(NCc2ccc(Cl)cc2)n2cnnc2n1 ?
Choline anaer gr: inactive; Choline anaer gr early: -1.2

How did Cc1oc(C2CCN(C(=O)NCc3ccco3)CC2)nc1C(=O)N1CCCC1 do in these assays?
Choline anaer gr: inactive; Choline anaer gr early: -1.3

Results for COc1ccc2cc3c(N)nn(C(=O)Cc4ccc(Cl)cc4)c3nc2c1 ?
Choline anaer gr: inactive; Choline anaer gr early: 0.77

What do the screens show for `CC1(C)C(=O)N(CC(=O)Nc2ccc(F)cc2F)c2ccc(S(=O)(=O)N3CCCCC3)cc21`?
Choline anaer gr: inactive; Choline anaer gr early: -0.31

What do the screens show for `Cc1[nH]ncc1CNC(=O)C1CCCN(C(=O)c2[nH]c(C)c(C(=O)OC(C)C)c2C)C1` (stereo unspecified)?
Choline anaer gr: inactive; Choline anaer gr early: 0.37

Results for O=c1c2ccccc2c(-c2nc(-c3ccccn3)no2)cn1-c1ccccc1 ?
Choline anaer gr: inactive; Choline anaer gr early: 0.7

Results for Cc1cc(C(=O)NC(C)CCc2ccccc2)c2c(=O)n(C)c(=O)n(C)c2n1 (stereo unspecified) ?
Choline anaer gr: inactive; Choline anaer gr early: 0.3

Results for CCN1c2cc(C)ccc2-n2cccc2C12CCN(S(=O)(=O)c1ccc(OC)c(OC)c1)CC2 ?
Choline anaer gr: inactive; Choline anaer gr early: -0.43

The list goes on, overlapping the part above by 3 compounds.
Results for O=c1c2ccccc2c(-c2nc(-c3ccccn3)no2)cn1-c1ccccc1 ?
Choline anaer gr: inactive; Choline anaer gr early: 0.7

Results for Cc1cc(C(=O)NC(C)CCc2ccccc2)c2c(=O)n(C)c(=O)n(C)c2n1 (stereo unspecified) ?
Choline anaer gr: inactive; Choline anaer gr early: 0.3

Results for CCN1c2cc(C)ccc2-n2cccc2C12CCN(S(=O)(=O)c1ccc(OC)c(OC)c1)CC2 ?
Choline anaer gr: inactive; Choline anaer gr early: -0.43

What do the screens show for `CN1CCN(S(=O)(=O)c2cc(-c3nnc(C4CCCC4)o3)co2)CC1`?
Choline anaer gr: inactive; Choline anaer gr early: 0.73

Results for O=c1n(Cc2ccc3c(c2)OCO3)nc2c(S(=O)(=O)N3CCOCC3)cccn12 ?
Choline anaer gr: inactive; Choline anaer gr early: -2.7

Results for Fc1ccc(-c2ccc(SCc3nc(-c4ccc(Cl)cc4)no3)nn2)cc1 ?
Choline anaer gr: inactive; Choline anaer gr early: -0.68

What do the screens show for `O=C(NCc1ccc2c(c1)OCO2)c1ccc(-c2cccnc2)cc1`?
Choline anaer gr: inactive; Choline anaer gr early: -0.1

How did O=C(Cn1nc2c3sc(N4CCCCC4)nc3ncn2c1=O)Nc1ccc(Cl)cc1 do in these assays?
Choline anaer gr: inactive; Choline anaer gr early: -0.5

Results for O=S(=O)(c1cccc(F)c1)N1CCn2cccc2C1c1ccc(F)cc1 (stereo unspecified) ?
Choline anaer gr: inactive; Choline anaer gr early: 1.4

Results for COc1cc(Nc2cc(-c3ccc(C)cc3)nc(C)n2)c(OC)cc1Cl ?
Choline anaer gr: inactive; Choline anaer gr early: -0.78

How did O=S(=O)(C1CC1)N1CCC(c2cc(-c3ccccc3)n[nH]2)CC1 do in these assays?
Choline anaer gr: inactive; Choline anaer gr early: -0.08

Results for Cc1nc2sccn2c(=O)c1S(=O)(=O)N1CCCC1 ?
Choline anaer gr: inactive; Choline anaer gr early: 0.87

Results for C=CCNc1oc(-c2ccc(Cl)cc2)nc1S(=O)(=O)c1ccc(F)cc1 ?
Choline anaer gr: inactive; Choline anaer gr early: 1.5

What do the screens show for `NC(=O)C1CCN(c2ncnc3sc4c(c23)CCCC4)CC1`?
Choline anaer gr: inactive; Choline anaer gr early: -0.08

What do the screens show for `O=C(NC1CCN(c2nnc3ccc(Cl)cn23)CC1)c1ccc(C(F)(F)F)s1`?
Choline anaer gr: inactive; Choline anaer gr early: 1.8

Results for CCCN1C(=O)c2c(-n3cccc3)c3cc(C)ccc3n2CC1(C)C(=O)NCCC(C)C (stereo unspecified) ?
Choline anaer gr: inactive; Choline anaer gr early: -1

How did CCCSc1nnc(NC(=O)c2cc(-c3ccc4c(c3)CC(C)O4)on2)s1 (stereo unspecified) do in these assays?
Choline anaer gr: inactive; Choline anaer gr early: 1.3

Results for O=C(Nc1ccc2c(c1)OCO2)N1CCc2c(sc3c2CCCC3)C1c1ccccc1 (stereo unspecified) ?
Choline anaer gr: inactive; Choline anaer gr early: -0.39

What do the screens show for `CC1Nc2ccc(Cl)cc2S(=O)(=O)N1` (stereo unspecified)?
Choline anaer gr: inactive; Choline anaer gr early: -0.65

Results for COc1ccc(CNC(=O)Cn2ncn3nc4c(c3c2=O)CCCC4)cc1OC ?
Choline anaer gr: inactive; Choline anaer gr early: -0.73

Results for Cc1ccc(C2CCCCCN2C(=O)NC2CCCCC2)s1 (stereo unspecified) ?
Choline anaer gr: inactive; Choline anaer gr early: -0.03

What do the screens show for `O=C(COCc1nnc(C(=O)Nc2cccc(Cl)c2)s1)NCCc1c[nH]c2ccccc12`?
Choline anaer gr: inactive; Choline anaer gr early: -0.84

Results for CCCc1cc(=O)[nH]c(=S)[nH]1 ?
Choline anaer gr: inactive; Choline anaer gr early: 0.31

Results for C=CCN1CCN(C2CCN(S(=O)(=O)c3ccc4c(c3)CCCC4)CC2)C(=O)C1=O ?
Choline anaer gr: inactive; Choline anaer gr early: -0.04

What do the screens show for `COc1ccc(-c2c(C)nn3c4c(cnc23)C(=O)CC(c2ccccc2)C4)cc1` (stereo unspecified)?
Choline anaer gr: inactive; Choline anaer gr early: -1.2

What do the screens show for `COC(=O)C(C)SC1=NS(=O)(=O)c2ccccc2N1` (stereo unspecified)?
Choline anaer gr: inactive; Choline anaer gr early: 1

How did COc1ccc(CCNC(=O)CSc2nnc(NC(=O)Nc3ccc(F)cc3)s2)cc1OC do in these assays?
Choline anaer gr: inactive; Choline anaer gr early: -0.73

Retrieved by compound from the list above, six records:
How did COc1ccc(CCNC(=O)CSc2nnc(NC(=O)Nc3ccc(F)cc3)s2)cc1OC do in these assays?
Choline anaer gr: inactive; Choline anaer gr early: -0.73

How did CCCSc1nnc(NC(=O)c2cc(-c3ccc4c(c3)CC(C)O4)on2)s1 (stereo unspecified) do in these assays?
Choline anaer gr: inactive; Choline anaer gr early: 1.3

What do the screens show for `COc1ccc(-c2c(C)nn3c4c(cnc23)C(=O)CC(c2ccccc2)C4)cc1` (stereo unspecified)?
Choline anaer gr: inactive; Choline anaer gr early: -1.2

What do the screens show for `CC1Nc2ccc(Cl)cc2S(=O)(=O)N1` (stereo unspecified)?
Choline anaer gr: inactive; Choline anaer gr early: -0.65

Results for COc1ccc(CNC(=O)Cn2ncn3nc4c(c3c2=O)CCCC4)cc1OC ?
Choline anaer gr: inactive; Choline anaer gr early: -0.73

What do the screens show for `O=C(COCc1nnc(C(=O)Nc2cccc(Cl)c2)s1)NCCc1c[nH]c2ccccc12`?
Choline anaer gr: inactive; Choline anaer gr early: -0.84

Next section:
Results for Cc1cc(-c2nn3c(C4COc5ccccc5O4)nnc3s2)c2ccccc2n1 (stereo unspecified) ?
Choline anaer gr: inactive; Choline anaer gr early: 0.03

What do the screens show for `CC(=O)Nc1nnc(S(N)(=O)=O)s1`?
Choline anaer gr: inactive; Choline anaer gr early: 0.47&0.8

Results for CCOc1ccc(CCn2c(C)c(C)c3c2ncn2ncnc32)cc1OCC ?
Choline anaer gr: inactive; Choline anaer gr early: -0.53

Results for O=C(CN1CCCN(Cc2ccccc2Cl)S1(=O)=O)Nc1ccc2c(c1)OCCO2 ?
Choline anaer gr: inactive; Choline anaer gr early: -0.06

How did O=C(NCC1CCCO1)N1CCCN(c2nc3ccccc3n3cccc23)CC1 (stereo unspecified) do in these assays?
Choline anaer gr: inactive; Choline anaer gr early: -0.14

Results for c1ccc(-c2noc(-c3cccnc3N3CCN(c4ccccc4)CC3)n2)cc1 ?
Choline anaer gr: inactive; Choline anaer gr early: 1.9

What do the screens show for `Cc1nc2cccnc2n1-c1ccc(CC(=O)Nc2ccc(F)cc2)cc1`?
Choline anaer gr: inactive; Choline anaer gr early: -0.21

Results for Cn1c(=O)[nH]c2c(C(=O)N3CCSCC3)snc2c1=O ?
Choline anaer gr: inactive; Choline anaer gr early: 0.08

What do the screens show for `CCCSCCCN1C(=O)c2nc3ccccc3n2CC1(C)C(=O)NC1CCCC1` (stereo unspecified)?
Choline anaer gr: inactive; Choline anaer gr early: -0.48

How did CCCCCCCCCC(=O)NC(CN1CCOCC1)[C@H](O)c1ccccc1 (stereo partly specified) do in these assays?
Choline anaer gr: inactive; Choline anaer gr early: -0.68

What do the screens show for `Cc1c(F)c(N2CCNC(C)C2)cc2c1c(=O)c(C(=O)O)cn2C1CC1` (stereo unspecified)?
Choline anaer gr: inactive; Choline anaer gr early: -1.5

Results for CC1CCN(c2ncc3c(n2)CCC(C(=O)NCCC2=CCCCC2)C3)CC1 (stereo unspecified) ?
Choline anaer gr: inactive; Choline anaer gr early: -0.18

Results for COc1cc(OC)c(NC(=O)Cn2c(C(=O)OC(C)C)cc3ccsc32)cc1Cl ?
Choline anaer gr: inactive; Choline anaer gr early: 1.8

What do the screens show for `COc1cc(Nc2ncc3c(n2)CCN(S(=O)(=O)c2ccc(C)cc2C)C3)cc(OC)c1`?
Choline anaer gr: inactive; Choline anaer gr early: -0.16

How did Cc1cc(C)c(S(=O)(=O)N2CCCC(C)(C(=O)NCc3cccc(F)c3)C2)cc1C (stereo unspecified) do in these assays?
Choline anaer gr: inactive; Choline anaer gr early: 1.2

Results for Cc1cc(C)cc(NC(=O)N2CCN(c3ccc(=O)n(-c4ccc(F)cc4)n3)CC2)c1 ?
Choline anaer gr: inactive; Choline anaer gr early: -0.59

Results for Cc1cc(C)cc(N2C(=O)c3cc(C)nn3CC2(C)C(=O)NCc2ccccc2)c1 (stereo unspecified) ?
Choline anaer gr: inactive; Choline anaer gr early: 1.4

How did CCOc1nc2cccnc2n(CC(=O)Nc2ccccc2C(=O)OC)c1=O do in these assays?
Choline anaer gr: inactive; Choline anaer gr early: 0.54

What do the screens show for `CC(C)NC(=O)C1CCCN(S(=O)(=O)c2cc(-c3noc(C4CCCC4)n3)cs2)C1` (stereo unspecified)?
Choline anaer gr: inactive; Choline anaer gr early: -0.6

What do the screens show for `O=C(Nc1cccc(Br)c1)N1CCN(Cc2nc3cccnc3n2-c2ccccc2)CC1`?
Choline anaer gr: inactive; Choline anaer gr early: -0.45

How did O=C(NCc1cccc(Cl)c1)C1CCCN(c2nn3c(=O)c4c(nc3s2)CCCC4)C1 (stereo unspecified) do in these assays?
Choline anaer gr: inactive; Choline anaer gr early: -0.22

Results for Cc1ccc(NS(=O)(=O)c2cc(-c3noc(C4CC4)n3)cs2)nc1 ?
Choline anaer gr: inactive; Choline anaer gr early: -1.4

How did CC1CCC(NC(=O)C2CCCN(S(=O)(=O)c3ccc4c(c3)NC(=O)C(C)O4)C2)CC1 (stereo unspecified) do in these assays?
Choline anaer gr: inactive; Choline anaer gr early: -0.17

Results for Cc1nn(-c2ccc3nncn3n2)c2c1C(c1ccccc1)CC(=O)N2 (stereo unspecified) ?
Choline anaer gr: inactive; Choline anaer gr early: 0.19

How did COc1ccc(-c2csc(NC(=O)c3ccc4c(c3)OCCO4)n2)cc1OC do in these assays?
Choline anaer gr: inactive; Choline anaer gr early: 0.32

How did COc1ccc(NC(=O)CSc2cc(N3CCCCC3)ncn2)cc1 do in these assays?
Choline anaer gr: inactive; Choline anaer gr early: 0.1

How did CCOCCn1c(COc2ccc(C(C)(C)C)cc2)nc2ccccc21 do in these assays?
Choline anaer gr: inactive; Choline anaer gr early: 1.2

How did Cn1c(=O)c2ccc(C(=O)NC3CCCC3)cc2n2c(SCC(=O)NC3CCCC3)nnc12 do in these assays?
Choline anaer gr: inactive; Choline anaer gr early: -0.22

Results for Cc1cc(NC(=O)C2CCCC2)n(-c2ncnc3c2cnn3-c2cccc(Cl)c2)n1 ?
Choline anaer gr: inactive; Choline anaer gr early: 0.02

What do the screens show for `CCOc1ccc(CNCc2ccc3nccnc3c2)cc1`?
Choline anaer gr: inactive; Choline anaer gr early: -4.8

How did COc1cccc(C(Nc2cc(C)ccn2)c2cc(C)sc2NC(=O)c2ccccc2)c1 (stereo unspecified) do in these assays?
Choline anaer gr: inactive; Choline anaer gr early: 0.8

Results for CCCCCC(=O)/C=C/C=C\C/C=C\C/C=C\CCCC(=O)O ?
Choline anaer gr: inactive; Choline anaer gr early: 0.27

How did CCOc1ccccc1NC(=O)N1CCN(CC(=O)c2c(C)n(C)c3ccccc23)CC1 do in these assays?
Choline anaer gr: inactive; Choline anaer gr early: -0.22

What do the screens show for `O=C(Cc1ccc(NC2=NC3CS(=O)(=O)CC3S2)cc1)Nc1ccccc1` (stereo unspecified)?
Choline anaer gr: inactive; Choline anaer gr early: -1.1

What do the screens show for `O=C(Cn1nc2c3sc(N4CCCCC4)nc3ncn2c1=O)Nc1ccccc1`?
Choline anaer gr: inactive; Choline anaer gr early: -1.1

Results for Cc1ccc2c(c1)N(C(=O)CSc1nnc3c4ccccc4nc(-c4ccccc4)n13)CCO2 ?
Choline anaer gr: inactive; Choline anaer gr early: -0.44

How did O=C1CSc2ccc(S(=O)(=O)N3CCC(C(=O)N4CCCC4)CC3)cc2N1 do in these assays?
Choline anaer gr: inactive; Choline anaer gr early: -2.3
